Bioassay records as filed in PubChem.
RecA intein inh: Mtb RecA intein splicing inhibition; inhibition, %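 (about 9 µM by stock and volumes)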; 0.75% of 290,000 active; cell-free RecA intein splicing, fluorescence; P9WHJ3; in the data active means inhibition above about 30%;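 further: 0% = vehicle wells and 100% = reference inhibitor control wells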
Target sequence (P9WHJ3 whole entry, looked up): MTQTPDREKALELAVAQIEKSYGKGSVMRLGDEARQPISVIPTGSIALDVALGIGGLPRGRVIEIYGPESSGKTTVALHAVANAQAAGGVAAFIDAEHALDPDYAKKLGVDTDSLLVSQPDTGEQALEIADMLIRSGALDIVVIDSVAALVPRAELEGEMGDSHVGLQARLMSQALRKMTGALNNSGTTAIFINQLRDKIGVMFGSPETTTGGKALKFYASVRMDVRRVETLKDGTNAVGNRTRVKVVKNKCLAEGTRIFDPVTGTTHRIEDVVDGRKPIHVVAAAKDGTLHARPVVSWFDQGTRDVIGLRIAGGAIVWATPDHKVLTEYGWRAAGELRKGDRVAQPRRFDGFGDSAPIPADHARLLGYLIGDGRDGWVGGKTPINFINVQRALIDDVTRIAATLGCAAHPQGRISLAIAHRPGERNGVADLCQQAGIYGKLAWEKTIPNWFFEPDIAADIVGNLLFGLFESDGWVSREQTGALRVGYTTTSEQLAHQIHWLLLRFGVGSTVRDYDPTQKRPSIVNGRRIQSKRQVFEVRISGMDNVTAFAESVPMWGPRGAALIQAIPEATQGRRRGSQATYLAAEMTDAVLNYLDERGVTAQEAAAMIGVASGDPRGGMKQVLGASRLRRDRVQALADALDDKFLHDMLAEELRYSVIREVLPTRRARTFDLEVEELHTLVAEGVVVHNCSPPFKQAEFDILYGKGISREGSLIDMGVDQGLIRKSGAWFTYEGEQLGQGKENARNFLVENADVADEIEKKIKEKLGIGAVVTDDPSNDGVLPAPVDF
Arbovirus anti: antivirals against arbovirus infection | 0.37% of 200,000 active | AID 1251 | arbovirus infection cell-based antiviral screen | inhibition, % at 10 µM;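 active means inhibition from about 30%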;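 further: bluetongue infection of BSR cells; cell survival read as ATP light after 72 h; 0% = infected wells without compound and 100% = uninfected wells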
Mtb bLac sens: beta-lactam sensitization of Mtb H37Rv | M. tuberculosis H37Rv growth with meropenem, percent inhibition; hits of this screen are not shown here | inhibition, % at 25 µM | 0.27% of 330,000 active | AID 434955;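 active means about 74% or more and at least 40 points above the plate without the antibiotic, then above 30% in a dose series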;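 further: growth measured after seven days incubation then overnight dye step; 0% = bacteria only wells and 100% = bacteria with antibiotic; twin plates without the antibiotic show which effects depend on it; some results filed as inactive read as strong as hits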
YopH PTP inh: YopH (Yersinia) phosphatase inhibition. fluorescence Ex485/Em525. inhibition, %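 (about 10 µM by stock and volumes)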. 0.16% of 140,000 active. AID 898;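 active means inhibition of 50% or more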;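 further: controls were vehicle for no effect and minimum signal wells for full effect; inactives centre near -20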
Mtb growth: M. tuberculosis H37Rv growth inhibitors, H37Rv strain (AID 1626) | M. tuberculosis H37Rv growth inhibition; higher % means a stronger effect | inhibition, % at 10 µM, or IC50 in µM where a hit was titrated | 0.95% of 220,000 active;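 active means confirmed in a dose series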;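 further: bacteria incubated seven days before Alamar blue readout; 0% = bacteria only wells and 100% = bacteria with antibiotic wells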
Arbovirus anti repeat: also measured in Arbovirus anti; calls as there; inhibition, %; measured here: 10K subset replicate screen; many hits read low in the repeat;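 first of two repeat runs on a subset; 0% = infected and 100% = uninfected wells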
* = called active by the depositor; · = no result given. Only part of the results is shown; count on the stated rates, not on these rows.

SMILES | RecA intein inh | Arbovirus anti | Mtb bLac sens | YopH PTP inh | Mtb growth | others
COc1ccccc1C(CC(=O)Nc1ccc(Cl)cc1)c1ccc(OC(C)C)cc1 (stereo not given) | -1.6 | -7 | -6 | -30 | -9%
Cc1ccccc1OCCCCn1cnc2ccccc21 | 8.3 | 14 | 93 | 2 | -2%
Cc1ccc(S(=O)(=O)Nc2ccc(Nc3ccccc3)cc2)cc1 | 6.2 | · | 4 | · | ·
Nc1cc(=O)[nH]c(SCC(=O)Nc2ccc([N+](=O)[O-])cc2)n1 | -2.1 | · | -11 | · | -8%
O=C(CN1CCCCC1)N1CCN(C(=O)CN2CCCCC2)CC1 | -0.6 | -3 | · | -5 | -1%
CCc1nc2nc(C)cc(Nc3cccc(C(F)(F)F)c3)n2n1 | 1.6 | -18 | 57 | -45 | -5%
COc1cccc(CN2CCN(C(=O)c3cccs3)CC2)c1OC | 1.5 | -1 | 2 | -23 | -4%
CC(C)CNS(=O)(=O)c1ccc(C(=O)Nc2ccc3c(c2)OCO3)cc1 | 0.0 | · | 0 | · | ·
CCOC(=O)C1=C(C)OC(N)=C(C(=O)OCC)C1c1ccncc1 (stereo not given) | 2.8 | 6 | 2 | -32 | -2%
CCOc1ccc(CCNC(=O)C2CCCN(S(=O)(=O)N3CCOCC3)C2)cc1OCC (stereo not given) | -4.3 | · | -1 | · | ·
CC(C)(C)CN1C(=O)C(=O)NC[C@H]1Cc1ccc(O)cc1 | 0.9 | · | -6 | · | 2%
O=C(CCc1ccccc1)OCC(=O)c1ccc([N+](=O)[O-])cc1 | -2.7 | 1 | 2 | · | 4%
COc1ccc(C(CNC(=O)C(Cc2ccccc2)NC(N)=O)N(C)C)cc1 (stereo not given) | 0.6 | · | -7 | · | ·
Cc1ccc([C@@H]2[C@@H]3C(=O)N(c4ccccc4)C(=O)[C@@H]3[C@]3(C)C(=O)N(Cc4ccccc4)CC(=O)N23)o1 | -0.4 | · | -4 | · | ·
COc1ccc(C(=O)N2CCOC2CNC(=O)C(=O)NCc2ccco2)cc1 (stereo not given) | 0.6 | 5 | -6 | · | -2%
COc1cc2ncnc(NCc3ccc(F)cc3)c2cc1OC | -1.3 | · | 0 | · | ·
O=C(NCCc1ccccc1)C1c2ccccc2C(=O)N1C1CC1 (stereo not given) | -2.2 | 1 | 2 | -2 | 2%
CCN1C(=O)CC(N2CCC(c3nc4ccccc4[nH]3)CC2)C1=O (stereo not given) | -1.8 | 0 | -3 | · | 0%
Cc1ncc(CO)c(/C=N/N=C/c2ccccc2O)c1O | 0.7 | -9 | -1 | -32 | -3%
COC(=O)/C=c1\sc2n(c1=O)C(C)=CC(C)(C)N=2 | -1.5 | 1 | -4 | -41 | -6%
COC(=O)c1ccc(Cl)c(NC(=O)Cc2ccccc2[N+](=O)[O-])c1 | 1.1 | 7 | -4 | -13 | 12%
CN(C)c1ccc(C=C(c2nnnn2-c2ccccc2)c2nnnn2-c2ccccc2)cc1 | -83 | -7 | -3 | -17 | 1%
COC(=O)Nc1ccc(S(=O)(=O)N2CCC(C(=O)N3CCC(C)CC3)CC2)cc1 | 0.2 | 9 | 8 | · | -8%
COc1cc(/C=N/NC(=O)c2csc3c2CCCC3)ccc1OCCN1CCOCC1 | 1.2 | · | 2 | · | ·

Ordered by formula weight (highest first): 3 of the compounds above
SMILES | RecA intein inh | Arbovirus anti | Mtb bLac sens | YopH PTP inh | Mtb growth | others
CN(C)c1ccc(C=C(c2nnnn2-c2ccccc2)c2nnnn2-c2ccccc2)cc1 | -83 | -7 | -3 | -17 | 1%
COC(=O)c1ccc(Cl)c(NC(=O)Cc2ccccc2[N+](=O)[O-])c1 | 1.1 | 7 | -4 | -13 | 12%
Cc1ncc(CO)c(/C=N/N=C/c2ccccc2O)c1O | 0.7 | -9 | -1 | -32 | -3%

Carrying on:
SMILES | RecA intein inh | Arbovirus anti | Mtb bLac sens | YopH PTP inh | Mtb growth | others
Cc1ccc(C#N)c(SCc2cccc(Br)c2)n1 | 3.4 | · | -1 | · | ·
COc1ccc(CCN2C(=S)N(c3ccccc3)C(=O)C2CC(=O)O)cc1OC (stereo not given) | -1.8 | · | 0 | · | ·
CC12CCC(C(=O)NCc3ccco3)(OC1=O)C2(C)C (stereo not given) | · | -2 | 7 | 7 | -12% | Arbovirus anti repeat=-1
O=C(C1=C[C@H](c2ccccc2)C[C@H](OCCCCO)O1)N1CCOCC1 | -0.1 | 1 | -10 | · | -5%
COc1ccc(OC)c(CCNC(=O)Cn2nc(C)c3c(C)n(-c4ccccc4)nc3c2=O)c1 | -4.5 | · | 8 | · | ·
COc1ccccc1CN1CCC(CNS(=O)(=O)c2cc(-c3onc(C)c3C)ccc2OC)CC1 | -1.6 | · | -2 | · | ·
CCOC(=O)c1sc(NC(=O)C2=COCCO2)c(C#N)c1C | -1.8 | · | -17 | · | ·
COc1cc(/C=C2/C(=N)N3C=CSC3=NC2=O)ccc1OCCCOc1c(C)cccc1C | 0.0 | -4 | 3 | -10 | 18%
O=P(/C(=N/O)N1CCOCC1)(N1CCOCC1)N1CCOCC1 | -1.3 | 4 | 14 | -44 | -3%
COC(=O)c1sccc1NC(=O)CSCCc1ccncc1 | 3.1 | 25 | -6 | · | -12%
COc1ccccc1NC(=O)COC(=O)c1c[nH]c(=O)[nH]c1=O | 0.1 | · | -8 | · | 0%
Cc1nc2cc(C)c(C)cc2s1 | -1.3 | 1 | -6 | · | -10%

Two compounds picked at random from those above, as already listed:
SMILES | RecA intein inh | Arbovirus anti | Mtb bLac sens | YopH PTP inh | Mtb growth | others
CC12CCC(C(=O)NCc3ccco3)(OC1=O)C2(C)C (stereo not given) | · | -2 | 7 | 7 | -12% | Arbovirus anti repeat=-1
COC(=O)c1sccc1NC(=O)CSCCc1ccncc1 | 3.1 | 25 | -6 | · | -12%

(cont.)
SMILES | RecA intein inh | Arbovirus anti | Mtb bLac sens | YopH PTP inh | Mtb growth | others
O=C(c1ccccc1)c1c[nH]c2ccccc12 | 0.6 | · | -2 | · | ·
O=C(NNC(=O)c1cccc2ccccc12)c1ccc2c(c1)OCO2 | 0.4 | · | -4 | · | -4%
CCCn1cnc2cc(NCc3cccc(OC)c3O)ccc21 | -0.4 | -1 | 94 | -31 | -3%
Oc1c(Cl)cc(Cl)cc1C=Nc1ccc2c(c1)OCCO2 | -4.3 | -4 | 65 | -13 | 4%
COC(=O)c1ccc(/C=C(\C#N)C(=O)NC(C)c2ccccc2)cc1 (stereo not given) | 17 | -18 | 99 | -10 | -1%
O=C(c1ccc(CS(=O)Cc2ccc(Cl)cc2)o1)N1CCN(c2ccc(F)cc2)CC1 (stereo not given) | 0.7 | · | 4 | · | ·
NS(=O)(=O)c1ccc(N/C=C\C(=O)c2ccncc2)cc1 | -4.6 | -3 | -8 | · | -1%
Cc1ccc(C)c(-c2cc(C(=O)NC3CC3)c3ccccc3n2)c1 | 1.1 | · | -4 | · | ·
CCCCc1ccc(N2C(=NC(=O)C3CCCO3)SC3CS(=O)(=O)CC32)cc1 (stereo not given) | -3.3 | · | -3 | · | ·
CN(C)S(=O)(=O)Nc1ccc(NS(=O)(=O)N(C)C)c(S(=O)(=O)c2ccccc2)c1 | -2.3 | 4 | 8 | -24 | -5%
COc1ccc(-c2cc(C(F)(F)F)n3nc(C(=O)NCc4ccco4)cc3n2)cc1OC | -33 | -5 | -1 | -32 | -4%
COCc1cc(=O)n2[nH]c(C)cc2n1 | 0.5 | 7 | -15 | -30 | -2%
Cc1ccc(Cn2cc(C(=O)c3ccc(F)cc3)c(=O)c3cc4c(cc32)OCCO4)cc1 | 1.8 | -5 | 3 | -33 | ·
CCSc1ccccc1C(=O)Nc1cccc(OC)c1 | -1.2 | 7 | -2 | -7 | 10%
O=C(NC1CCCCC1)C(c1ccccc1)N(C(=O)c1csnn1)C1CCCC1 (stereo not given) | -1.1 | · | 8 | · | ·
NC(=O)C1CCN(C(=O)c2ccc(Oc3ccccc3)cc2)CC1 | -0.6 | 6 | · | 4 | -18%
O=C(O)C1=C[C@H](c2ccccc2)C[C@H](OCc2ccc(CO)cc2)O1 | 2.2 | 2 | -4 | · | 2%
Cc1ccc([N+](=O)[O-])cc1NC(=O)C1CCN(S(C)(=O)=O)CC1 | 2.1 | 3 | -3 | -23 | -5%
Cc1ccc(CNC(=O)C2(NC(=O)Nc3ccc(C)cc3)CCCCC2)cc1 | 2.3 | -17 | 1 | -6 | -1%
Cn1c(=O)oc2cc(S(=O)(=O)N3CCC(C(=O)N4CCN(c5ccccc5)CC4)CC3)ccc21 | · | -4 | 2 | -21 | 6% | Arbovirus anti repeat=5
CC1CN(C(=O)/C(C#N)=C2\N=C(NC(=O)c3ccc(F)cc3)c3ccccc32)CC(C)O1 (stereo not given) | 0.6 | · | 53 | · | 8%
Cc1ccc(C(=O)CSc2nnc(-c3snnc3C)n2C2CC2)cc1 | 1.9 | · | -3 | · | -4%
Cc1cc(NS(=O)(=O)c2ccc(NC(=O)COc3ccc(Br)cc3)cc2)nc(C)n1 | 3.0 | · | 7 | · | ·
COc1cc(S(=O)(=O)N2CCOCC2)ccc1NC(=O)COc1ccc(N(C)S(=O)(=O)c2ccc(C)cc2)cc1 | -2.6 | 2 | 2 | · | 5%
CCC1(CC)C(=O)C2=C3C1[C@H](C(=O)OC)CC(C(=O)OC)C[C@H]3n1c(=O)n(C)c(=O)n1[C@H]2C (stereo not given in full) | -1.6 | · | -2 | · | -11%
CCOC(=O)c1c(C)[nH]c(C)c1S(=O)(=O)NC1CCN(C(=O)OCC)CC1 | 2.7 | · | -2 | · | ·
Nc1ncnc(Nc2ccccc2Cl)n1 | -1.5 | · | -6 | · | -6%
Cc1[nH]n(-c2ccccc2)c(=O)c1C(c1ccc(C(=O)O)cc1)c1c(C)[nH]n(-c2ccccc2)c1=O | 96* | -8 | 6 | -10 | 3%
COc1ccccc1/C=C/CN1CCCCC1 | 0.2 | · | 2 | · | ·
COc1ccccc1CNC(=O)COc1ccc(S(=O)(=O)N2CCOCC2)cc1 | -0.8 | · | -20 | · | ·
CCOc1ccccc1OCC(=O)NNC(=S)NC1CCCCC1 | -2.6 | 0 | 0 | · | 3%
CCO[C@H]1OC(C(=O)O)=C[C@@H](c2ccc(C(F)(F)F)cc2)[C@@H]1CCCO | 1.8 | 0 | -4 | · | -4%
Cc1cc(Cl)ccc1Oc1nc(-c2ccccc2)ncc1S(C)(=O)=O | -1.2 | -15 | 6 | -51 | 15%
CCc1cccc(C)c1NC(=O)Cn1c(NCCO)nc2ccccc21 | -1.5 | -6 | 2 | -25 | -6%
N#Cc1c(N)nc2c3c(sc(=N)c2c1N)NC(=O)CC3c1ccccc1Cl (stereo not given) | -2.5 | 0 | 13 | -34 | -1%
Cc1ccc(C)c(C(=O)CCC(=O)Nc2ccc(F)cc2)c1 | 0.4 | · | -1 | · | ·
Cc1ccc(NC(=O)Cn2cc(C=O)c3ccccc32)cc1C | -0.9 | · | 2 | · | ·
CCOc1cc(N2CCOCC2)c(OCC)cc1NC(=O)Cc1cn2ccsc2n1 | -3.2 | -3 | -7 | -20 | 6%
Cc1cccc(C)c1N1CCN(S(=O)(=O)c2ccc(F)cc2)CC1 | 9.0 | 14 | 19 | -26 | -4%
O=C(Nc1cccc2ccccc12)c1cn(-c2ccccc2)nc1-c1cccs1 | -0.3 | -6 | 1 | -19 | 13%
C=CCn1c(SCC(=O)NCC(=O)OCC)nnc1-c1cccc(OC)c1 | 1.3 | -2 | -8 | -26 | 6%
CC(=O)c1cc(C)ccc1OC(=O)CCN1C(=O)C2C3c4ccccc4C(c4ccccc43)C2C1=O (stereo not given) | -0.7 | 5 | 9 | 3 | -2%
CC/C(=N\Nc1nncc2ccccc12)c1ccc(F)cc1 | 2.7 | · | 0 | · | ·
CCOC(=O)CC(C#N)c1c[nH]c2ccccc12 (stereo not given) | 2.7 | 4 | -4 | 14 | -6%
O=c1cc[nH]c2cc(C(F)(F)F)ccc12 | -1.4 | -6 | -8 | -24 | 11%
c1ccc2c(c1)ncn2CCCCOc1ccc2c(c1)CCC2 | 13 | -32 | 100 | -15 | 4%
O=C(COC(=O)Cc1ccc(F)cc1)NC1CCCC1 | -1.0 | · | -11 | · | ·
O=C1CN(C(=O)c2cnccn2)c2ccccc2N1 | 1.6 | 5 | -3 | -22 | -2%
Cc1noc(C(=O)NCc2cccnc2)c1Cl | 0.7 | 3 | 2 | -32 | -5% | Arbovirus anti repeat=0
COC(=O)c1ccc2c(c1)NC(=O)c1ccccc1S2 | -2.1 | · | 2 | · | ·
Cc1cccc(Nc2nnc(C)c(=O)n2N)c1 | -1.6 | 7 | -1 | -28 | -6%
COCCNc1cc(C)nc2cc(-c3ccc(C)cc3)nn12 | -19 | -15 | 16 | · | -4%
CN1CCCN(C(=O)c2cccc(Br)c2)CC1 | -0.4 | · | -1 | · | ·
Cc1cc(/C=C2/C(=O)N(C)C(=S)N2C)c(C)n1C1CC1 | -1.3 | 4 | 5 | -21 | -2%
NC(=Nc1ccc(N)cc1)C(N)=Nc1ccc(N)cc1 | -0.4 | · | 2 | · | -10%
